# PINK1 expr mod: PINK1 expression modulation. AID 624263. Potency, µM (highest dose often 76.6 µM), for inactives: at the highest dose activation (PINK1 increase), hits mostly activators. 410,000 tested, 0.2% active. PINK1 immunofluorescence, high-content cytometry, 24 h; active = well fitted activation curve with a large enough effect; inconclusive = small, poorly fitted or top-dose-only effect; inactive = flat fitted curve, though single readings scatter; cell line not stated here;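 further: potency means the concentration at half of the fitted maximal effect; % of control where 0% means no effect; nearly all actives have a fitted effect of over 65% in size; a mitochondrial uncoupler was the plate control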
#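 A stable cell line was treated with compounds at 5 concentrations for 24 hours, with CCCP as control. PINK1 levels and mitochondrial localization were measured by immunofluorescence with mitochondrial, cell and nuclear markers after fixation, read by laser-scanning cytometry.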
# gsp antag: antagonists of gsp mutant (McCune-Albright syndrome) | AID 624288 | 340,000 tested, 0.4% active | Potency, µM (highest dose often 76.9 µM), for the others: top-dose activity change, negative = inhibition, actives largely listed as inhibitors | gsp-mutant cells, cAMP HTRF, 30 min; control for the full effect not named in the record; active = falling curve of any shape with a large fitted effect; inconclusive = falling curve, mostly with a smaller effect; inactive = flat or rising curve; cell line not stated here;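 further: intracellular cAMP measured with PDE inhibitor Ro 20-1724 present during compound exposure; potency means the concentration at half of the fitted maximal effect; on the % scale 0 is the no-effect control and ±100 the full control effect; nearly all actives have a fitted effect of over 65% in size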
#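 Cells, 2000/well, grown 16–24 h in DMEM 10% FBS with 0.5 mg/ml G418, then compounds plus […] (300 uM addition stock), 30 min at 37C. cAMP read by HTRF (cAMP-d2 and anti-cAMP antibody-K in lysis buffer) after 30 min RT.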
# gsp agonist: agonists of gsp mutant (McCune-Albright syndrome). gsp mutant cells, cAMP HTRF, 30 min; control for the full effect not named in the record. Potency, µM (top dose mostly 76.9 µM), for inactives: top-dose activation (cAMP increase), most hits filed as activators. 340,000 tested, 0.13% active. AID 624287; active = well fitted activation curve with a large enough effect; inconclusive = small, poorly fitted or top-dose-only effect, or another doubt; inactive = no such curve, though single readings can be large or run the other way; cell line not stated here;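 further: phosphodiesterase inhibitor Ro 20-1724 added with compounds to block cAMP breakdown; potency means the concentration at half of the fitted maximal effect; nearly all actives have a fitted effect of over 60% in size; about a fifth of the inactives were tested at one dose only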
#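 Cells stably selected in G418 were plated at 2000/well, grown 16-24 hr, then given compounds in DMSO with the PDE inhibitor […] (300 uM solution added) for 30 min at 37C; cAMP was read by HTRF.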
# ClpP mod: qHTS Assay for Activators of ClpP; purified B. subtilis ClpP, FRET peptide cleavage, 20 min; Potency, µM (top dose mostly 57.5 µM), inactives show at the highest dose activity change, negative = active; 340,000 tested, 1.9% active; active = well fitted falling curve with a large enough effect; inconclusive = small, poorly fitted or top-dose-only effect; inactive = no such curve, though single readings can be large or run the other way; further: potency means the concentration at half of the fitted maximal effect; the source files actives as falling curves though it sought activators and does not explain the sign; nearly all actives have a fitted effect of over 65% in size; many hits overshoot -100%
# Target sequence (P80244 whole entry, looked up): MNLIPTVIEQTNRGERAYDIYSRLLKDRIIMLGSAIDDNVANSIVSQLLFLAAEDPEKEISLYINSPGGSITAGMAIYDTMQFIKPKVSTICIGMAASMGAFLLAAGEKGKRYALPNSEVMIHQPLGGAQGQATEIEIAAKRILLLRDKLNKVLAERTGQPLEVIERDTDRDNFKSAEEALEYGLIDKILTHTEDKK
#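 Buffer: 100 mM Tris/HCl pH8, 100 mM KCl, 0.05% low protease BSA, 2.5% glycerol, 0.01% Tween-20. ClpP 10 microg/mL final; 20 min RT; delta FRET normalized to ADEP and DMSO controls.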
# Menin MLL FP FL: displaces fluorescein MLL peptide from human menin | 290,000 tested, under 10 active | AID 1766 | Fluorescence polarization, fluorescein-MLL peptide displacement from menin | FP activity change, % at 61.4 µM; inconclusive = falling polarisation curve, or a change in total fluorescence; inactive = total fluorescence flat and polarisation flat or rising; no compound was filed as active; the % refers to the polarisation; negative = inhibition;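 further: % of control where 0% means no effect; inhibitors lower the polarisation; unlabelled MLL peptide was the positive control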
# Sfp inh: blocks B. subtilis Sfp PPTase activity; Q9F4F7; Biochemical Sfp PPTase activity, qHTS; Potency, µM, for the others: max response, negative = inhibition, usual class: inhibitors; 310,000 tested, 3.5% active; active means well fitted inhibition curve with a large enough effect; inconclusive means small, poorly fitted or top-dose-only effect, or another doubt; inactive means no such curve, though single readings can be large or run the other way;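 further: the enzyme is Sfp with the accession as filed and its product quenches rhodamine fluorescence; potency means the concentration at half of the fitted maximal effect; 0% = enzyme reaction without inhibitor and -100% = no enzyme wells; top concentration of the series not given in the record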
#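 Step 1, compound plus 15 nM Sfp-PPTase, 15 min, room temperature. Step 2, add rhodamine-CoA (5 uM) and BHQ-2-YbbR (12.5 uM). Step 3, read 525/598 nm fluorescence at 0 and 30 min.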
# D2 agonist: activates the human D2 dopamine receptor. 360,000 tested, 0.084% active. DiscoveRx PathHunter D2 beta-arrestin, luminescence, 90 min; 100% = 57 uM dopamine signal. activation, % (test concentration not listed); in the data active = activation above about 40%; inconclusive = about 15% to 40%; inactive = below about 15%; further: compound concentration not given in the record; the text of the record calls up to 30% inactive
# Target sequence (P14416 whole entry, looked up): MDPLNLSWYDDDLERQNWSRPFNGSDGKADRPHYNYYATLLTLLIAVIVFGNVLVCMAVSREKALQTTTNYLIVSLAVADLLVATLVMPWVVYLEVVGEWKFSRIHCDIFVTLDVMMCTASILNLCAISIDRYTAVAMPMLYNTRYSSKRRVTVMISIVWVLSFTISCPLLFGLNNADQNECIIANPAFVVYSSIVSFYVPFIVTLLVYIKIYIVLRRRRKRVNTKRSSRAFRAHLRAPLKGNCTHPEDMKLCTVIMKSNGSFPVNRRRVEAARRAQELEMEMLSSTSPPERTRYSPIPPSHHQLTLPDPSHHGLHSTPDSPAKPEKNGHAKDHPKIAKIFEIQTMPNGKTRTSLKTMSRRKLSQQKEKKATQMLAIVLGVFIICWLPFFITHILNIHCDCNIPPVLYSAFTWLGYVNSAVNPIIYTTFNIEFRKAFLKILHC
#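 Agonist mode: compounds alone added to overnight-plated D2 PathHunter cells for 90 min at 37 C, with 57 uM final dopamine (EC100) defining full response. Beta-arrestin recruitment detected by chemiluminescent reagent, read after 1 h at ambient temperature.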
# Starred values were filed as active, the others as inactive; ? = inconclusive; / = not tested or not shown; & = joins results of further samples; [ ] = dose if it differs, or a comment. Compounds were not picked by outcome. About 5.1% of those tested had a hit in this group.
canonical_smiles	PINK1 expr mod	gsp antag	gsp agonist	ClpP mod	Menin MLL FP FL	Sfp inh	D2 agonist
COc1ccccc1S(=O)(=O)N(C)C[C@H]1OCc2cnnn2CCCC(=O)N([C@@H](C)CO)C[C@H]1C	1.9%	/	-2.0%	0.0%	/	/	-3.9
Cc1cc(SCC(=O)Nc2ccc(O)cc2)n2ncc(-c3ccccc3)c2n1	2.8%	?	-7.7%	12.4%	-2.2	14.5%	3.7
O=C(c1ccc(=O)[nH]c1)N(Cc1ccco1)C1(C(=O)NC2CCCCC2)CCCCC1	-1.5%	1.4%	-0.1%	-0.2%	4.7	5.9%	-5.6
Oc1ccc(Cl)cc1N=Cc1sc2ccccc2c1Cl	9.1%	-8.6%	-1.6%	/	8.9	-20.6%	9.3
NC(=O)C1CCN(C(=O)CSc2nc3c(c(-c4ccccc4)n2)CCCC3)CC1	0.7%	-16.9%	-3.3%	0.4%	-2.4	14.4%	-4.5
COc1ccc(C(=O)CCN2CCN(c3ccc(OC)cc3)CC2)cc1	1.8%	-13.5%	4.8%[15.4 µM]	0.1%	-5.2	-2.8%	-0.4
CCOc1cnc(C(=O)NNC(=O)C(Br)C(C)C)o1 (stereo unspecified)	1.0%	7.6%	-10.2%	1.8%	0.6	-10.1%	-3.9
O=C(CSc1nnc2ccc(-c3ccncc3)nn12)c1cccs1	-0.8%	-4.2%	6.6%[15.4 µM]	/	-0.1	-3.7%	-0.8
Cc1ccc(-c2nc3cc(N)ccc3o2)c(C)c1	-0.4%&0.2%	16.4%	31.6µM*	-29.4%	0.6	1.4%	-2.4
O=C(COc1ccc(Cl)cc1)N1CCN(c2ncccn2)CC1	0.2%	2.0%	-7.9%	-0.6%	3.6	11.5%	-2.4
O=C(CCc1nnc2ccc(NCc3ccc(Cl)cc3)nn12)NC1CCCCC1	?	10.6%	-42.3%[inhibitor]	-3.2%	2.5	26.4%	1.7
CCSc1nc(=O)n(-c2ccccc2)c(C)c1C(C)=O	2.9%	10.6%	8.8%	-1.8%	-0.8	4.5%	-1.4
Cc1ccccc1NC(=O)Cc1nc(COC(=O)C(C)(C)Oc2ccc(Cl)cc2)cs1	8.8%	/	-4.2%	-2.4%	/	/	-0.6
CC1=CC(C)C2C(=O)N(CCC[N+](C)(C)C)C(=O)C2C1 (stereo unspecified)	0.8%	6.6%	2.6%	2.3%	-3.0	4.8%	-4.2
Cc1c(C(=O)NCCc2ccccc2)oc2ccc(S(=O)(=O)N3CCC4(CC3)OCCO4)cc12	-2.8%	?	-49.9%[inhibitor]	-0.8%	1.4	6.1%	1.8
N#C/C(C(=O)NCc1ccccc1)=C1/SC(Cc2ccc(Cl)cc2)C(=O)N1c1ccccc1 (stereo unspecified)	4.6%	30.5%[activator]	16.2%	-11.0%	-3.2	-0.7%	-4.5
O=C(NC1CCN(Cc2ccccc2)CC1)c1cccc(NS(=O)(=O)c2ccc(Br)cc2)c1	-0.5%	-10.3%	-0.6%	0.3%	/	/	-1.3
COc1ccc(OC)c(NC(=O)Cn2c(=O)n(CC3CCCO3)c(=O)c3cc(OC)c(OC)cc32)c1 (stereo unspecified)	0.5%&6.2%	3.1%	19.9%	-18.4%&-5.3%	-2.9	17.1%	7.3
O=C(CSc1nc2[nH]ncc2c(=O)[nH]1)Nc1ccc(Cl)c(Cl)c1	3.0%	6.0%	2.7%	-0.8%	/	/	-1.1
COc1cccc(/C=C2/SC(=S)N(CCC(=O)N3CCOCC3)C2=O)c1	13.8%	6.4%	-1.2%[15.4 µM]	0.3%	-0.5	14.9%	-3.6
COc1ccc(NC(=O)COCC(=O)Nc2ccc(C)cc2)cc1	-0.3%	4.3%	8.8%	-1.5%	0.5	14.6%	-0.7
CCOC(=O)c1c(NC(=O)C(F)(OC)C(F)(F)F)sc2c1CCN(C)C2 (stereo unspecified)	-0.8%	0.5%	-6.4%	-12.3%	?	0.2%	-3.3
C=CCn1c(SCC(=O)NCC(=O)OCC)nnc1-c1ccccn1	-0.6%[38.3 µM]	-10.9%	0.5%	0.7%	-1.5	19.6%	-3.7
N#Cc1cnn2cc(-c3ncc(C(F)(F)F)cc3Cl)cnc12	9.8%[38.3 µM]	3.6%	-22.3%	28.2µM*	0.2	11.7%	-0.6
CCc1ccccc1NS(=O)(=O)Cc1ccccc1	1.5%	1.8%	11.8%[15.4 µM]	-0.6%	-6.1	5.8%	-2.2

# Carrying on.
canonical_smiles	PINK1 expr mod	gsp antag	gsp agonist	ClpP mod	Menin MLL FP FL	Sfp inh	D2 agonist
CCc1ccc(NC(=O)c2ccc3c(c2)C(=O)N(Cc2ccco2)C3=O)cc1	5.3%	-9.9%	2.5%	0.5%	-2.0	39.8µM*	-2.3
CC1CCN(C(=O)COC(=O)/C=C/c2ccc(Br)o2)CC1	-1.3%	8.0%	-1.1%	-1.3%	/	/	0.1
Cc1cc(Cl)ccc1C(=O)C1CCCN(C(=O)CCn2cnnn2)C1 (stereo unspecified)	-1.3%	7.5%	17.5%[15.4 µM]	/	-1.6	1.0%	0.7
Cc1ccccc1NC(=O)Cc1nc(CSc2nnc(-c3ccc4c(c3)OCO4)o2)cs1	19.7%	-5.3%	-5.8%	25.0%	7.7	-8.6%	-4.0

# Laid out differently: four of the compounds above.
COc1ccc(C(=O)CCN2CCN(c3ccc(OC)cc3)CC2)cc1
  PINK1 expr mod: 1.8%; gsp antag: -13.5%; gsp agonist: 4.8%[15.4 µM]; ClpP mod: 0.1%; Menin MLL FP FL: -5.2; Sfp inh: -2.8%; D2 agonist: -0.4
CCc1ccccc1NS(=O)(=O)Cc1ccccc1
  PINK1 expr mod: 1.5%; gsp antag: 1.8%; gsp agonist: 11.8%[15.4 µM]; ClpP mod: -0.6%; Menin MLL FP FL: -6.1; Sfp inh: 5.8%; D2 agonist: -2.2
COc1ccccc1S(=O)(=O)N(C)C[C@H]1OCc2cnnn2CCCC(=O)N([C@@H](C)CO)C[C@H]1C
  PINK1 expr mod: 1.9%; gsp antag: /; gsp agonist: -2.0%; ClpP mod: 0.0%; Menin MLL FP FL: /; Sfp inh: /; D2 agonist: -3.9
N#Cc1cnn2cc(-c3ncc(C(F)(F)F)cc3Cl)cnc12
  PINK1 expr mod: 9.8%[38.3 µM]; gsp antag: 3.6%; gsp agonist: -22.3%; ClpP mod: 28.2µM*; Menin MLL FP FL: 0.2; Sfp inh: 11.7%; D2 agonist: -0.6

# High-throughput results deposited in PubChem by National Center for Advancing Translational Sciences (NCATS).
